Sa growth inh – inhibitors of Staphylococcus aureus growth at 42 °C; relative growth, % (concentration not given with the values); S. aureus RN4220 growth, OD600, 20 h; stronger effect = lower value; AID 720641; hit rate 0.53% among 170,000;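 active = growth at 42 °C up to 50% and 20 or more points under that at 30 °C, or under 10% at both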;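 note: 300 nL library stock went into each well; scaled to the means of positive and negative controls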
GIV Gai3 FP – blocks GIV peptide binding to rat Galpha-i3; hit rate 0.42% among 210,000; percent of control (FP), % (concentration not given with the values); AID 1224905; P08753; Galpha-i3/FITC-GIV peptide fluorescence polarization, 90 min; stronger effect = lower value; scaled: aluminum fluoride 0%, vehicle 100%;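 active = replicate mean at 85% of control or lower, very high polarization wells dropped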;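 note: wells of about 15 µL received 100 nL stock; the first replicate is given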
Target sequence (P08753 whole entry, looked up): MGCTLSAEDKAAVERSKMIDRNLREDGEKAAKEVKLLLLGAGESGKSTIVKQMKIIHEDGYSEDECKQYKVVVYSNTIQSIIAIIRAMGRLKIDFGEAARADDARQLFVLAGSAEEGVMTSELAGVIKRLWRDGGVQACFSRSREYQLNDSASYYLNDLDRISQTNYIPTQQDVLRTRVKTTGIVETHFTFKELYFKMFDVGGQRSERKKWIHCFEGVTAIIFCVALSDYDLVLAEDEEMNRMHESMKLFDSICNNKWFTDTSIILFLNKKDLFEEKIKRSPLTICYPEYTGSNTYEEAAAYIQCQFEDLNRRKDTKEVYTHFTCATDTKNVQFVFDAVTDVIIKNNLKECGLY
HCMV NEC inh – inhibitors of HCMV UL50-UL53 nuclear egress complex interaction. inhibition, % (no concentration beside the values). hit rate 0.15% among 190,000. HTRF UL50-UL53 interaction, normalized percent inhibition;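 active = both replicates at 50% or more, plus weaker picks with an unusually low signal ratio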;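 note: stock transfer was 100 nL into about 20 µL; 0% = negative control wells and 100% = wells with untagged competitor protein; inactives centre near -12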
Sa growth inh second temp – further read-out of Sa growth inh, marked with its call; relative growth, %; measured here: growth at 30 °C;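 optical density after 20 h as mean of two plates; 100% = untreated growth and lower means inhibition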
The depositor's hits bear a star; / = no result given; & = joins results of further samples.

(1) O=C1OC2C(C(=O)O)Sc3c(sc(=O)n3-c3ccccc3)C2c2cc(Br)ccc21 (stereo not given)
(2) COc1ccc(SCc2cc(=O)c3ccc(C)c(C)c3[nH]2)cc1
(3) N#CC(c1nc2ccccc2nc1Cl)S(=O)(=O)c1ccccc1 (stereo not given)
(4) CCN(CC)C(=O)CSc1nc2cc3c(cc2c(=O)n1CCCC(=O)NCc1ccc(OC)cc1)OCO3
(5) S=C(Nc1ccc(Cl)cc1)N1CCN=C1Nc1ccc(Cl)cc1
(6) COc1ccc(Cc2n[nH]c(=O)c3ccccc23)cc1OC
(7) Cc1noc(C)c1/C=N/NC(=S)NCCc1ccccc1
(8) O=C1c2cccnc2C(Nc2ccc(Br)cc2)N1C1CCCCC1 (stereo not given)
(9) CC(=O)NS(=O)(=O)c1ccc(NC(=O)c2c(-c3ccccc3)noc2C)cc1
(10) Cc1c(C)n(-c2ccccc2)c2ncn(CCC(=O)NCc3ccccn3)c(=O)c12

screen / no.	1	2	3	4	5	6	7	8	9	10
Sa growth inh	98	94	77	72	106	89	82	85	84	/
Sa growth inh second temp	85	87	87	89	97	90	88	41	84	/
GIV Gai3 FP	97	101	/	101	105	101	/	106	97	100
HCMV NEC inh	/	/	-78	/	-7	4	-20	-14	-2	10

Complete entries from above. Values in the order: Sa growth inh | Sa growth inh second temp | GIV Gai3 FP | HCMV NEC inh
`Cc1c(C)n(-c2ccccc2)c2ncn(CCC(=O)NCc3ccccn3)c(=O)c12` as listed: / | / | 100 | 10
`O=C1OC2C(C(=O)O)Sc3c(sc(=O)n3-c3ccccc3)C2c2cc(Br)ccc21` (stereo not given) as listed: 98 | 85 | 97 | /
`O=C1c2cccnc2C(Nc2ccc(Br)cc2)N1C1CCCCC1` (stereo not given) as listed: 85 | 41 | 106 | -14
`Cc1noc(C)c1/C=N/NC(=S)NCCc1ccccc1` as listed: 82 | 88 | / | -20

(continued)
(11) CN1/C(=c2/sc(=C3C(=O)NC(=S)NC3=O)n(C)c2=O)Sc2ccccc21
(12) Cc1ccc(N2C(=O)CSC23C(=O)N(CC(=O)Nc2ccc(C)cc2C)c2ccccc23)cc1 (stereo not given)
(13) Cc1ccccc1-n1c(-c2ccc(Cl)cc2)cn2c3c(=O)n(C)c(=O)n(C)c3nc12
(14) Cc1ccc(-c2nc(SCCOc3ccccc3C)n3[nH]c(=O)cc3n2)cc1
(15) COC(=O)c1c(C)[nH]c(C(=O)N2CCCC(C(=O)N3CCN(c4ccccn4)CC3)C2)c1C (stereo not given)
(16) Cc1csc(/C=C2\CCc3c(cnc4ccc5ccccc5c34)C2=O)c1
(17) Cn1cnnc1SCc1nc(-c2ccsc2)no1
(18) CCC(C)NC(=O)c1cc2ccc3ccc(C)[nH]c3c2n1 (stereo not given)
(19) O=C(CSc1nc2ccccc2[nH]1)NO
(20) CCOC(=O)C1=C(N)OC2=C(C(=O)CCC2)C1c1cccs1 (stereo not given)

screen / no.	11	12	13	14	15	16	17	18	19	20
Sa growth inh	88	101	/	108	/	83	98	/	84	97
Sa growth inh second temp	95	96	/	98	/	86	102	/	69	83
GIV Gai3 FP	273	105	108	100	98	99	96	101	/	104
HCMV NEC inh	-16	/	-21	/	-13	/	5	-8	-46	-17

(21) Cc1ccc(NNC(=O)c2ccno2)cc1Cl
(22) CC(C)(C)C(=O)C1=C(O)C(=O)N(Cc2ccccc2)C1c1cccnc1 (stereo not given)
(23) C=CCNc1ncnc2c1cnn2C
(24) COc1ccccc1N1CCN(c2nc3c(S(=O)(=O)c4ccccc4)nnn3c3ccc(Cl)cc23)CC1
(25) COC(=O)C1=C(CN2CCCC2)NC(=O)NC1c1ccc(OC)cc1 (stereo not given)
(26) Cc1cccc(N2CCN(C(=O)c3c4c(nc5ccccc35)C(=O)N(C3CCCCC3)C4)CC2)c1C
(27) Cc1cc(SCc2ncon2)c(Cl)cc1Cl
(28) CCN(CC)c1nc2c(C)cccn2c(=O)c1/C=N/O
(29) CCn1nc(C)c(CCN(C)C(=O)Nc2ccc(Br)cc2F)c1C
(30) C=CCOn1c(=O)c(=O)n(OCC=C)c2ccccc21

screen / no.	21	22	23	24	25	26	27	28	29	30
Sa growth inh	94	104	93	106	95	115	101	82	/	99
Sa growth inh second temp	65	79	96	85	75	97	93	87	/	87
GIV Gai3 FP	111	103	97	100	102	104	113	102	101	104
HCMV NEC inh	-8	-4	3	-33	-22	/	-18	/	-16	-19

(31) Cc1cccc(N=CC=C2OC(C)(C)C(C)(C)O2)c1
(32) CCOc1ccc(C2C(C(=O)O)c3ccccc3C(=O)N2CCN2CCOCC2)cc1 (stereo not given)
(33) Cc1ccc2c(c1)-c1c(cnn1CC(=O)N1CCN(c3cc(C)ccc3C)CC1)CO2
(34) COc1ccc(-n2nnnc2SCC(=O)c2ccc3c(c2)OCCO3)c(OC)c1
(35) CN(C)c1nc2c(N)ncnc2n1C1OC(CO)C(O)C1O (stereo not given)
(36) CN(C)c1ccc(C(CNS(=O)(=O)c2ccc(F)cc2)N2CCc3ccccc32)cc1 (stereo not given)
(37) N#CCCn1nc(-c2ccc(Cl)cc2)cc1-n1c(C(F)(F)F)nc2ccccc21
(38) Cn1cc(CCC(=O)NCc2ccccc2)c2ccccc21
(39) COc1ccc(-n2c3c(cc(C(N)=O)c2=O)C(=O)CCC3)cc1
(40) CN(C(=S)NCc1ccccc1)C1CCCCC1

screen / no.	31	32	33	34	35	36	37	38	39	40
Sa growth inh	116	83	101	124	/	119	93	99	67	107
Sa growth inh second temp	54	81	85	107	/	97	84	81	95	100
GIV Gai3 FP	107	102&100	100	103	102	102	/	101&105	104	105
HCMV NEC inh	/	-1&-25	-18	-12	-13	/	1	-107	18	1

(41) CCOC(=O)c1c(NC(=O)c2ccc(OC)cc2)sc2c1CC(C)CC2 (stereo not given)
(42) Cn1cnc(S(=O)(=O)N2CCCN(C(=O)OC(C)(C)C)CC2)c1
(43) O=C(O)C1C2CCC(C2)C1C(=O)O (stereo not given)
(44) CC1CC(C)CN(C(=O)CSc2nnc(SCC(=O)N3CC(C)CC(C)C3)n2N)C1 (stereo not given)
(45) O=C(O)CCn1nnc(-c2cccs2)n1
(46) O=C1CN(C(=O)c2ccc(Br)cc2)c2ccccc2N1
(47) Cn1c(CN(c2ccc(F)cc2)S(C)(=O)=O)nnc1SCC(=O)c1ccccc1
(48) CC(C)(CN1CCN(C(c2ccccc2)c2ccccc2)CC1)NS(=O)(=O)c1ccccc1
(49) CC(=Nc1ccccc1)C1=C(O)COC1=O
(50) Cc1ccccc1OCC(=O)Nc1ccccc1Nc1ccccc1

screen / no.	41	42	43	44	45	46	47	48	49	50
Sa growth inh	97	89	104	78	102	101	/	91	115	77
Sa growth inh second temp	87	86	100	97	92	96	/	81	103	80
GIV Gai3 FP	/	104	100	/	101	103	105	/	105	/
HCMV NEC inh	-4	-21	-27	-15	-27	-8	-12	-11	-16	-36

(51) CCCCN(CC)CCCNC(=O)c1ccc2c(c1)NC(=O)CN2C
(52) O=C(COc1ccc(Cl)cc1)Nc1ccccc1C(=O)OCc1cc(=O)n2ccsc2n1
(53) Cc1ccc(F)cc1NC(C#N)c1ccccc1 (stereo not given)
(54) O=C(Oc1ccccc1N1CCOCC1)c1cccnc1Sc1ccc(Cl)cc1
(55) O=C1CN(C(=O)Cc2ccc(F)cc2)C(c2ccc(F)cc2)c2cc(F)ccc2N1 (stereo not given)
(56) Nc1cc(Cl)ccc1Nc1ccncc1
(57) O=C(CSc1nccc(-c2csc(COc3ccccc3Cl)n2)n1)c1ccccc1
(58) O=C(Cn1nnc(N2CCCCC2)n1)N/N=C/c1cccnc1
(59) CCOc1ccccc1CNC(=O)c1ccc2c(c1)nc1n2CCC(C)C1 (stereo not given)
(60) CCC(NC(=O)NCc1ccc2c(c1)OCO2)(C(F)(F)F)C(F)(F)F

screen / no.	51	52	53	54	55	56	57	58	59	60
Sa growth inh	111	95	95	108	106	136	103	93	94	105
Sa growth inh second temp	89	75	61	91	81	90	87	93	98	98
GIV Gai3 FP	106	103	100	104	104	103	101	104	109	102
HCMV NEC inh	/	/	-26	-13	/	34	-32	-22	/	-3

(61) CC(C)C(=O)NC(=S)Nc1ccc2oc(-c3cccnc3)nc2c1
(62) Cc1nc(Nc2c(C)n(C)n(-c3ccccc3)c2=O)cc(-c2ccccc2)n1
(63) Cc1ccc(C(=O)OCCOc2ccc(Br)cc2)cc1
(64) CC(=O)Nc1ccc(S(=O)(=O)N(C)CC(=O)OCc2cn3cc(Cl)ccc3n2)cc1
(65) Cc1cccc(CCNC(=O)c2cc3c(=O)[nH]c4ccc(C)cc4c3s2)c1
(66) COc1cc(NC(=O)C(C)(C)C)ccc1Br
(67) Fc1ccc(-c2ccc(SCc3nc(-c4ccc5c(c4)OCO5)no3)nn2)cc1
(68) CCOc1ccc(-c2cc(CCCC(=O)NCCc3ccccc3)no2)cc1
(69) Cc1c(NC(=O)c2ccc(C(=O)O)cc2C(=O)O)c(=O)n(-c2ccccc2)n1C
(70) NC(=O)CSc1nnc(SCCOc2ccccc2)s1

screen / no.	61	62	63	64	65	66	67	68	69	70
Sa growth inh	92	/	121	82	100	93	/	90	88	102
Sa growth inh second temp	94	/	88	93	89	85	/	94	83	101
GIV Gai3 FP	108	94	/	/	102	105	100	104	108	107
HCMV NEC inh	-2	-19	-15	-35	-20	-36	0	/	-25	-10

2 entries from above, reformatted:
# | Compound | Sa growth inh | Sa growth inh second temp | GIV Gai3 FP | HCMV NEC inh
65 | Cc1cccc(CCNC(=O)c2cc3c(=O)[nH]c4ccc(C)cc4c3s2)c1 | 100 | 89 | 102 | -20
66 | COc1cc(NC(=O)C(C)(C)C)ccc1Br | 93 | 85 | 105 | -36

Following part
(71) Cc1ccc(Oc2nc3ccccc3n3c(C)nnc23)cc1C
(72) Cc1nc2nc(CNC(=O)c3cccc(F)c3)nn2c(C)c1CCC(=O)Nc1cccc(Cl)c1
(73) CC1CCC(=NO)CC1 (stereo not given)
(74) CCn1nnc2sc(-c3ccccc3)cc2c1=O
(75) Fc1cccc(Cl)c1CN1CCN(CCCNc2nccc(C(F)(F)F)n2)CC1
(76) CCOC(=O)c1cccc(NC(=O)C2CCCN(S(=O)(=O)c3cc(Br)cc4c3N(C(=O)CC)CC4)C2)c1 (stereo not given)
(77) COC(=O)c1ccc(Oc2ccc(Cl)cc2Cl)o1
(78) COc1ccccc1OCC(=O)N(Cc1cccs1)C1CCS(=O)(=O)C1 (stereo not given)
(79) O=c1cc(-c2ccccc2)nc(-c2ccc(Br)cc2)[nH]1
(80) COc1cccc(/C=C(\C#N)c2nc3ccc(C)cc3[nH]2)c1

screen / no.	71	72	73	74	75	76	77	78	79	80
Sa growth inh	82	98	79	87	96	102	92	105	88&99	86
Sa growth inh second temp	83	95	88	83	99	93	87	79	90&122	82
GIV Gai3 FP	100	105	/	106	112	106	103	100	107&94	70*
HCMV NEC inh	-38	11	-6	-57	/	-5	6	-33	-4&7	-37

(81) Cc1cc(C)c(C(=O)Nc2ccccc2)c(SCC(=O)Nc2ccc(Br)cc2C)n1
(82) COc1cc2c(cc1OC)C(COc1ccc(F)cc1)N(C(=O)C(C)C)CC2 (stereo not given)
(83) O=C(CSc1nnc(-c2cccnc2)o1)Nc1ccc2c(c1)OCO2
(84) O=C(c1ccccc1)c1cccc(NC(=O)C2CC2)c1
(85) O=C(COc1ccc(C2N(Cc3ccccc3)CCN2Cc2ccccc2)cc1)N1CCOCC1
(86) N/C(=N\O)c1ccc(OC(F)(F)F)cc1
(87) Cc1[nH]nc2c1C(c1ccccc1Cl)N(c1ccc(Br)cc1)C2=O (stereo not given)
(88) CC(=O)Nc1ccccc1OCc1nnc(-c2ccccc2)o1

screen / no.	81	82	83	84	85	86	87	88
Sa growth inh	99	80	/	105	78	97	/	110
Sa growth inh second temp	78	85	/	70	91	112	/	101
GIV Gai3 FP	100&102	97	101	98	103	98	101	104
HCMV NEC inh	-12&-13	/	-27	-13	/	3	-13	4

Screens from PubChem BioAssay.
